Screens from PubChem BioAssay.
UCH37 DUB inh = human UCH37 deubiquitinating enzyme inhibition; Q9Y5K5; purified proteasome/UCH37, Ub-AMC cleavage fluorescence; inhibition, % (no concentration beside the values); hit rate 0.33% among 330,000;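 active = mean of two replicates above 20%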;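 note: 0% = compound-free wells with enzyme and 100% = wells lacking proteasome; stock transfer was 100 nL into about 20 µL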
Target sequence (Q9Y5K5 whole entry, looked up): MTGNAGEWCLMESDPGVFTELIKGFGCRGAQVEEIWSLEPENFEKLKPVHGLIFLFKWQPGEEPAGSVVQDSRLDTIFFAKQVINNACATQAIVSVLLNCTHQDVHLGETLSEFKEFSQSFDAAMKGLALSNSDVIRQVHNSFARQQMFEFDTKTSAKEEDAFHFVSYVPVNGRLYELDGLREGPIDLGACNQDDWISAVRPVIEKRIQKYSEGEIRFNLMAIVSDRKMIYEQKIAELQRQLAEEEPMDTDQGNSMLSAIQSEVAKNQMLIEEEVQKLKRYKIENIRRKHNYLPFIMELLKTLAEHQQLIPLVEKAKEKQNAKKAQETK
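assay system = human UCH37 enzyme supplied as purified proteasome complex | amount = proteasome at 0.15 nM in the dispensed enzyme solution | schedule = 30 min compound-proteasome preincubation then 25 min substrate reaction, room temperature | measured by = fluorescence, ex 355 nm, em 460 nm | benchmarks = no-proteasome wells (full inhibition) and compound-free wells (no inhibition)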
Beta2AR agonist = agonists of human beta-2 adrenergic receptor inducing internalization; Am2.2-beta2AR cells, FAP receptor internalization, flow cytometry; reference of the scale not given here; response, % (concentration not given with the values); AID 504454; P07550; hit rate 0.43% among 340,000;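 active = response above a set limit, near 3 SD of response in nonfluorescent compounds, cut at about 42% in these data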;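 note: stock transfer was 100 nL into about 11 µL; a reference agonist was the positive control; negative values mostly stem from fluorescent compounds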
rRNA inh HTS = inhibitors of bacterial rRNA selective over humanized ribosomes. E. coli WT GFP vs humanized-ribosome RFP mutants, fluorescence, 24 h; stronger effect = lower value; DMSO median 0, no signal -100. GFP signal change (wild-type ribosome), % (no concentration beside the values). hit rate 1.6% among 350,000. AID 720706;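 active = significant combined selectivity score with lowered wild-type GFP, culture density cut under 30%, mutant RFP and density less affected; inactive = any of these conditions unmet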; note: one replicate is shown; some compounds called inactive have numbers as strong as hits
FGF22 binding = binders of recombinant human FGF22 by thermal shift; SYPRO orange fluorescence; percent of sucrose octasulfate shift, DMSO zero; calls only at 9.99 µM; hit rate 1.5% among 340,000;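 active = melting point raised past a set limit in the mean and every replicate; three in four hits are not shown here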
ALR inh = inhibitors of human sulfhydryl oxidase ALR | inhibition, % (test concentration not listed) | purified ALR, DTT oxidation, H2O2 HRP-luminol luminescence | hit rate 3.8% among 290,000 | P55789;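 active = mean and each replicate at 75% or more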;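 note: stock transfer was 7.5 nL into about 7.5 µL; 0% = neutral wells and 100% = wells with inactivated enzyme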
Target sequence (P55789 whole entry, looked up): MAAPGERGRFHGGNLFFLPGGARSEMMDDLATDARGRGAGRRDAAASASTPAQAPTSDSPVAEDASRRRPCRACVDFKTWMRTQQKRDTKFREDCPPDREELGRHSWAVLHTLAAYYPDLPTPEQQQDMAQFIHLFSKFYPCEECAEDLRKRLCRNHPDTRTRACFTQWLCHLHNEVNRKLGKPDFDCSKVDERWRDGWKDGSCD
HNF4A DNA FP = change in binding of human HNF4 alpha to DNA | P41235 | HNF4a-FITC DNA binding, fluorescence polarization, 1 h | activity change, % at 10 µM | hit rate 0.3% among 360,000; in the data active = activity change above about 30%, passing the limit was not always enough;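 note: controls were the assay level and a saturating level of protein; the project sought stronger binding though the title names inhibitors; some compounds called inactive have numbers as strong as hits; positive values seem to mean higher polarization but the record does not say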
Target sequence (P41235 whole entry, looked up): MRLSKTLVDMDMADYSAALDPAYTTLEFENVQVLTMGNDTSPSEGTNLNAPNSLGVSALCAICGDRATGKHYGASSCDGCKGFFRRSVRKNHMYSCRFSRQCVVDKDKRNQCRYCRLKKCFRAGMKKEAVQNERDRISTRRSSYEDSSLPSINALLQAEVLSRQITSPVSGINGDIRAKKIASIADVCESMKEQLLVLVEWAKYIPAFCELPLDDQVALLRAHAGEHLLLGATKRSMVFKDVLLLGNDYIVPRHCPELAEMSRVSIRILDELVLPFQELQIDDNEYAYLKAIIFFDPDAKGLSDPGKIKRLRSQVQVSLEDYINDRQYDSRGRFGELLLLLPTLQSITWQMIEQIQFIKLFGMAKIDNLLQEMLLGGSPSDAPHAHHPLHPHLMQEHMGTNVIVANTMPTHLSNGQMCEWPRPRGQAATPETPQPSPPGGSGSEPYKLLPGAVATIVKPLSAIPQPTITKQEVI
Ecoli growth = inhibitors of Escherichia coli growth; OD600, 23 h; stronger effect = lower value; AID 1053175; hit rate 0.21% among 330,000; OD600 absorbance (concentration not given with the values);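 active = OD600 absorbance below the run mean of sample wells minus 3.6 SD, in any replicate, cut at about 0.56 in these data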;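 note: stock transfer was 300 nL into about 60 µL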
rRNA inh HTS OD600 = also measured in rRNA inh HTS; calls as there; OD600 change, %; measured here: OD600 growth;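 optical density of the mix in the first replicate; 0 = DMSO median and -100 = no signal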
rRNA inh HTS RFP = second read-out of rRNA inh HTS, no call of its own (marks repeat the call); RFP signal change, %; measured here: RFP humanized mutant strains;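 first replicate; 0 = DMSO median and -100 = no signal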
* hit, by the source's call; i = inactive; · = no result given; + = active, no number; & = joins results of further samples. The list is partial, so the mix of outcomes need not match the whole.

SMILES	UCH37 DUB inh	Beta2AR agonist	rRNA inh HTS	rRNA inh HTS OD600	rRNA inh HTS RFP	FGF22 binding	ALR inh	HNF4A DNA FP	Ecoli growth
O=C(CCN1C(=O)/C(=C/c2ccccc2Cl)SC1=S)NCCc1ccc(O)cc1	3.0	8.0	2.9	11.6	1.6	i	-1.3	2.5	0.708
CCCCCCNC(=O)C(=O)NCCc1ccc(Cl)cc1	-0.2	-4.5	-1.8	-2.2	-1.2	i	-3.6	4.7	0.721
CCNC(=O)C1(C)CCCN1C(=O)c1cc(C)on1 (stereo unspecified)	·	·	12.0	17.6	2.6	i	·	2.4	·
Cc1ccc(-c2nc3c(c(SCC(=O)N4CCOCC4)n2)Cc2c(CO)cnc(C)c2O3)cc1	6.8	-1.9	-0.4	6.3	6.2	i	23.1	0.9	0.694
O=C1CCCCC1Nc1ccc(Br)cc1 (stereo unspecified)	·	-5.9	-18.6*	-6.0*	3.2*	i	·	-1.7	·
CN1CCN(c2ccc(Cl)cc2NC(=O)CC2OC(=O)c3ccccc32)CC1 (stereo unspecified)	6.5	-1.5	8.6	-0.4	1.1	i	-0.8	-1.7	0.689
O=C(NCc1ccco1)C(c1cccnc1)N(C(=O)Cn1nnc2ccccc21)c1ccc(F)cc1 (stereo unspecified)	3.2	15.3	·	·	·	·	-11.4	-0.1	0.791
CCN1CCN(S(=O)(=O)c2ccc(Br)s2)CC1	0.8	-8.3	·	·	·	·	6.5	-0.8	0.709
S=C(NCCSCc1ccccc1Cl)Nc1ccccc1	0.5	10.3	·	·	·	·	-10.4	2.5	0.652
CC(NC(=O)c1noc2c1CCCCC2)c1ccccc1 (stereo unspecified)	6.3	-7.2	-4.9	-8.6	-4.4	i	·	0.1	0.705
O=[N+]([O-])c1ccc(NCCCNS(=O)(=O)c2ccc(Cl)cc2)c(Cl)c1	3.6	-2.1	·	·	·	·	-7.3	0.8	0.684
COc1ccc(CCNC(=O)Nc2cccs2)c(OC)c1	2.4	-12.9	2.2	-1.4	0.4	i	-1.3	1.4	0.645
C/C(Cn1cnc([N+](=O)[O-])n1)=N\NC(=O)c1ccc(Br)cc1	·	13.2	0.2	-0.5	-4.1	i	-62.9	-1.1	·
COc1cccc(CN2CCN(C(=O)C3CCC(=O)N(C4CCCC4)C3)CC2)c1 (stereo unspecified)	4.3	-4.1	3.1	6.9	-1.5	i	-13.0	-1.6	0.653
O=C(COC(=O)Cc1c(F)cccc1Cl)NC(=O)Nc1ccccc1F	0.9	-5.2	·	·	·	i	-8.6	0.2	0.71
Oc1ccc2c(c1)c1ccccc1c1ncccc21	-1.3	13.9	-5.5	5.4	4.5	i	·	-2.6	0.675
O=c1[nH]c(CN2CCN(c3ccccc3O)CC2)nc2ccccc12	-4.5	-0.6	·	·	·	·	31.8	-0.4	0.756
O=C1OC/C(=C(/O)c2ccc(Cl)cc2)C1=O	14.8	-0.5	8.3	10.8	1.3	i	·	-1.7	0.695
O=C(O)c1ccc(-c2ccccc2C(F)(F)F)o1	1.7	10.5	·	·	·	·	-0.3	-0.5	0.663
CCCCOCCCNC(=O)c1ccc2c(c1)OCO2	1.2	-10.4	·	·	·	·	-0.3	-2.4	0.7
CC(=O)N1CCN(c2ccc(NC(=O)C(c3ccccc3)c3ccccc3)cc2)CC1	·	0.8	8.4	1.3	0.0	i	3.9	-0.3	·
COc1cc2c(cc1OC)C(c1cccc([N+](=O)[O-])c1)NC(=O)C2 (stereo unspecified)	2.4	-0.9	6.4	9.1	-14.8	i	12.9	0.4	0.708
CN(C)c1nc(-c2cccnc2)nc(-c2ccc(Cl)cc2)c1C#N	-29.2	-13.0	10.3	20.7	3.3	i	1.5	-2.4	0.675
COc1ccccc1C(=O)Nc1ccc(N2CCCCC2)cc1	4.0	-6.1	·	·	·	·	83.2*	9.4	0.77
CS(=O)(=O)Nc1ccc2c(c1)[C@H]1C[C@H](CC(=O)NCc3ccccc3)O[C@H](CO)[C@H]1O2	·	·	18.5&2.2	7.3&5.0	0.9&-1.3	i	·	2.3	·
Cn1cccc1CC(=O)NNC(=S)Nc1ccc(F)cc1	·	6.3	9.9	13.0	0.8	i	56.9	0.1	·
CC1(C(=O)NC2CCCCC2)CCC(=O)N1Cc1cccnc1 (stereo unspecified)	0.3	3.9	-4.0	-7.9	3.1	i	-16.5	-0.5	0.742
CCOC(=O)[C@H]1[C@H]2COc3ccc(C)cc3[C@@H]2N2C(=O)c3ccc(Cl)cc3NC(=O)[C@@]12C	1.8	-11.9	-12.9	-28.4	-7.0	i	0.2	4.3	·
CCOC(=O)N1CCN(c2nc3ccc(C(=O)c4ccccc4)cc3n3cnnc23)CC1	-2.2	6.2	11.0	2.3	5.7	i	12.2	0.5	0.701
COc1ccccc1N/C(=N/S(=O)(=O)c1ccc(C)cc1)c1ccccc1	-0.6	-2.9	-26.2	-24.7	-12.3	i	-5.4	4.2	0.735
CCc1nnc(NS(=O)(=O)c2ccc(N=CC3=C(O)CC(C)(C)CC3=O)cc2)s1	4.5	6.0	14.2	5.6	1.2	i	-5.5	-2.4	0.695
CCn1c(SCC(=O)c2ccc(Cl)cc2)nnc1-c1cccs1	1.9	-6.7	·	·	·	·	·	-2.0	0.709
CCOC(=O)C1(CCOc2ccccc2)CCN(Cc2ccccc2O)CC1	·	-0.6	-12.7	-5.8	-1.3	i	·	-0.8	·
Cc1ccc(OCC(=O)Nc2ccc3c(c2)nc(CCN2CCOCC2)n3C)cc1	3.9	·	·	·	·	·	55.7	0.5	0.736
O=C(COC(=O)c1ccco1)Nc1cccc(S(=O)(=O)N2CCOCC2)c1	·	·	4.7	12.3	-2.0	i	·	2.9	·
Cc1csc(=O)n1CC(=O)OCC(=O)NCc1ccccc1	2.7	2.3	5.6	7.4	-2.6	i	·	0.0	0.608
O=C(Nc1ccc(N2CCN(C(=O)c3cccs3)CC2)cc1)c1ccccc1F	0.8	2.1	8.6	-3.5	0.0	i	48.9	0.3	0.685
COC(=O)c1ccc(C)c(NC(=O)C(CCSC)NC(=O)c2cc(OC)c(OC)c(OC)c2)c1 (stereo unspecified)	4.1	1.0	7.2	8.7	1.6	i	0.0	3.8	0.694
CC(=O)Nc1ccc(N2CCOCC2)c(Cl)c1	3.8	3.1	-0.8	7.4	-1.2	i	2.0	3.0	0.663
CCOC(=O)c1ccc2nc(NC(NC(C)=O)(C(=O)OC)C(F)(F)F)sc2c1 (stereo unspecified)	0.6	0.4	·	·	·	·	-3.0	4.4	0.726
CCc1nc2ccc(C(=O)NCCCn3ccnc3)cn2c1N(C)Cc1ccc(N(C)C)cc1	·	·	-5.3	11.3	-7.0	i	·	-0.8	·
COc1cc2c(cc1OC)C(C(=O)Nc1ccccn1)C(c1cccnc1)N(C)C2=O (stereo unspecified)	3.1	-1.4	·	·	·	·	-16.1	3.1	0.666
COC(=O)CCC(=O)OC1(C)C(=O)C=C2C=C(C3CC3)N(Cc3ccccc3)C=C2C1=O (stereo unspecified)	3.9	5.7	·	·	·	·	·	-2.7	0.703
Cc1ccn2c(Cc3ccccc3)c(-c3ccc(F)cc3)nc2c1	·	·	-59.8	-76.2	-17.9	i	·	0.1	·
Cc1noc(C)c1C(=O)OCC(=O)c1ccc[nH]1	-1.6	-5.1	·	·	·	·	-3.7	0.3	0.704

Some values from the list:
Ecoli growth with O=[N+]([O-])c1ccc(NCCCNS(=O)(=O)c2ccc(Cl)cc2)c(Cl)c1 : 0.684
rRNA inh HTS OD600 with CCOC(=O)[C@H]1[C@H]2COc3ccc(C)cc3[C@@H]2N2C(=O)c3ccc(Cl)cc3NC(=O)[C@@]12C : -28.4

(list continues)
SMILES	UCH37 DUB inh	Beta2AR agonist	rRNA inh HTS	rRNA inh HTS OD600	rRNA inh HTS RFP	FGF22 binding	ALR inh	HNF4A DNA FP	Ecoli growth
CCCC(=O)Nc1ccc2oc(=O)ccc2c1	-5.6	-5.7	6.6	8.7	4.8	i	-3.6	-0.1	0.708
CCn1nc(C(=O)OCC(=O)N(CC(C)C)c2c(N)n(Cc3ccccc3)c(=O)[nH]c2=O)c2ccccc2c1=O	2.1	11.4	7.1	8.3	-3.5	+	·	0.0	0.647
COCCNC(=O)C(c1ccc(F)cc1)N(Cc1cccs1)C(=O)CCC(=O)Nc1ccccn1 (stereo unspecified)	-2.4	0.3	-0.3	-0.5	0.1	i	1.7	0.4	0.711
CCOc1ccc(-n2c(O)c(/C=N/c3ccnn3Cc3ccncc3)c3ccccc3c2=O)cc1	-18.0	-17.7	5.5	4.3	-1.9	i	7.4	12.8	0.649
CC1(C)CC(=O)C(C=NCC2CCN(C(=O)Nc3ccc(Cl)c(Cl)c3)CC2)=C(O)C1	5.7	-1.6	·	·	·	·	-5.9	2.7	0.782
COC(=O)/C(=N\Nc1ccc(Cl)cc1)Sc1nnc(-c2ccc(OC)cc2)n1C	·	3.4	3.5	7.0	2.6	i	94.6*	0.6	·
C=CCn1c(CNS(=O)(=O)c2ccc(Cl)cc2)n[nH]c1=S	0.3	5.5	8.3	5.3	2.2	i	70.6	2.3	0.679
c1nc(N2CCOCC2)c2[nH]cnc2n1	1.6	-4.2	·	·	·	·	-0.3	-2.3	0.737
CCc1noc(C)c1C(=O)Nc1cc(S(=O)(=O)N(CC)CC)ccc1N1CCOCC1	1.7	7.2	-2.3	-4.6	1.3	i	·	5.0	0.667
CCCCCC(=O)N1C[C@H](n2cc(COC(=O)c3ccccc3)nn2)[C@@H](O)C[C@@H]1c1ccc(C)cc1	·	·	-2.5	-0.7	7.8	i	·	3.2	·
Cc1ccc(S(=O)(=O)NCC(C)NS(=O)(=O)c2ccccc2[N+](=O)[O-])cc1 (stereo unspecified)	3.2	1.0	-44.6	-75.1	-9.3	i	-10.2	0.1	0.693
C=CCN1CCN(C(=O)c2cc3c(s2)CCC(CC)C3)CC1 (stereo unspecified)	1.9	-11.4	-22.0	-30.7	-6.0	i	2.5	1.9	0.709
COc1nc(-c2ccccc2)c2c(c1C#N)CC(C)(C)OC2	-0.7	-1.1	·	·	·	·	-3.7	0.4	0.735
O=C(Cc1ncc(C(F)(F)F)cc1Cl)NCCc1ccccn1	0.9	5.7	4.0	7.4	-2.7	i	11.2	-0.8	0.712
CCN(CC(=O)Nc1ccc2c(c1)OCCO2)S(=O)(=O)c1ccc(F)cc1	1.6	3.6	5.8	-2.1	-1.9	i	-0.2	-1.4	0.666
CCOC(=O)C1CCCN(C(=O)CCNC(=O)Cn2ccc3ccccc3c2=O)C1 (stereo unspecified)	3.6	-8.1	4.2	11.4	-0.7	i	-0.9	-0.4	0.658
Cc1ccc(-c2nn3c(C)nnc3c3ccccc23)cc1S(=O)(=O)NCCN1CCOCC1	-1.0	-1.8	·	·	·	·	-6.9	0.1	0.654
O=C(CSc1nnc(NC(=O)C2CC2)s1)Nc1ccc2c(c1)OCCO2	1.0	-4.8	0.1	2.8	0.0	i	-2.6	0.0	0.704
CN1C(=S)SC(N(O)C(=O)Nc2cccc3ccccc23)C1(C)C (stereo unspecified)	-2.2	4.3	·	·	·	·	-4.2	-1.5	0.757
CSc1nc2nc(C)c(C/C=C/c3ccccc3)c(=O)n2[nH]1	4.9	8.3	-24.4	-21.9	-6.2	i	31.1	3.5	0.598
O=C(NCCCN1CCCC1=O)c1ccc2c(=O)n(-c3ccc(F)cc3)c(=S)[nH]c2c1	3.1	·	6.1	6.9	5.9	i	-0.7	·	0.714
CC(C)CCC(C)NC(=O)C1CCN(S(=O)(=O)/C=C/c2ccccc2)CC1 (stereo unspecified)	-0.4	29.0	3.4	13.4	-1.1	i	1.6	2.0	0.668
